MLL AF4-AF9 inh – blocks AF4 peptide binding to human AF9 | P42568 | AlphaScreen, biotin-AF4 peptide binding to FLAG-AF9 | inhibition, % at 10 µM | 0.47% of 350,000 active | AID 651704;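 active = every replicate reaching a set inhibition limit, whatever the replicate mean, cut at about 25% in these data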;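 also: 0% = plate neutral control median and 100% = total signal loss; the record names both 10 and 1 µM as test concentration; the first replicate is given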
Target sequence (P42568 whole entry, looked up): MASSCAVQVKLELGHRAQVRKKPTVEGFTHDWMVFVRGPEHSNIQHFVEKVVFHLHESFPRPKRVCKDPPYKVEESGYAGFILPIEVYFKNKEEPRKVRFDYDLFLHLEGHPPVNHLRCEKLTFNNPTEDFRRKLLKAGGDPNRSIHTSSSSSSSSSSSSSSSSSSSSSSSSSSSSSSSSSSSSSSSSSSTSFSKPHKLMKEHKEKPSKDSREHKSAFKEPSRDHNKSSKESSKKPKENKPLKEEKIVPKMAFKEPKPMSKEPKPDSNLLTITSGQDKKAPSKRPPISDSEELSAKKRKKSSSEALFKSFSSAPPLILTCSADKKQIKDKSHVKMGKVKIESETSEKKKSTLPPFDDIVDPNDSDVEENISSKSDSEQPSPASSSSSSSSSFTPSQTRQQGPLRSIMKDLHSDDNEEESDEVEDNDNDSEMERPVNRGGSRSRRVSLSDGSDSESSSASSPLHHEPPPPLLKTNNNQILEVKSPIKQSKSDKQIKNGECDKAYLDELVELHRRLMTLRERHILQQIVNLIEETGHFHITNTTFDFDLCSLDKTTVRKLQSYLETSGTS
FGF22 binding – shifts melting point of recombinant human FGF22; recombinant FGF22 thermal shift, SYPRO orange fluorescence; percent of sucrose octasulfate shift, DMSO zero; calls only at 9.99 µM; 1.5% of 340,000 active; AID 651658; Q9HCT0;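 active = melting point raised past a set limit in the mean and every replicate; three in four hits are not shown here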
Target sequence (Q9HCT0 whole entry, looked up): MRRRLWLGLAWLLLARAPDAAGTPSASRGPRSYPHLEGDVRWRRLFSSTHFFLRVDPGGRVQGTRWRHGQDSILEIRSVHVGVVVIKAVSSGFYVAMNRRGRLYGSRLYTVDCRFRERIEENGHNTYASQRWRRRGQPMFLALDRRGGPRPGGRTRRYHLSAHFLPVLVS
A1 inh – inhibitors of the anti-apoptotic protein A1, read as caspase activation. MEF A1-2A-BIM cells, Caspase-Glo 3/7 luminescence, 3 h; percent of clofoctol response, vehicle zero. 0.066% of 330,000 active. caspase activation, % (test concentration not listed);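 active = over half of replicate activation scores above 10%, or exactly half above 10 with the replicate mean above 10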;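 also: wells of about 30 µL received 50 nL stock; many hits fall short of the cut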
Beta apoptosis – beta cell apoptosis inhibition | protection from apoptosis, % (concentration not given with the values) | 0.8% of 300,000 active | AID 435005 | INS-1E cytokine-induced death, ATP luminescence, 48 h; percent of positive-control rescue, neutral wells zero;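 active = all replicates at 75% or more, or half of them and the mean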;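 also: 0% = cytokine-treated negative control wells and 100% = positive control rescue; higher means more ATP so stronger rescue from cytokine killing; wells of about 40 µL received 100 nL stock; the first replicate is given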
rRNA inh HTS – inhibitors of bacterial rRNA selective over humanized ribosomes. E. coli WT GFP vs humanized-ribosome RFP mutants, fluorescence, 24 h; active compounds read low; DMSO median 0, no signal -100. GFP signal change (wild-type ribosome), % (no concentration beside the values). 1.6% of 350,000 active;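 active = significant combined selectivity score with lowered wild-type GFP, culture density cut under 30%, mutant RFP and density less affected; inactive = any of these conditions unmet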; also: one replicate is shown; some compounds called inactive have numbers as strong as hits
Ecoli growth – inhibitors of Escherichia coli growth; OD600, 23 h; active compounds read low; OD600 absorbance (no concentration beside the values); 0.21% of 330,000 active; AID 1053175;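 active = OD600 absorbance below the run mean of sample wells minus 3.6 SD, in any replicate, cut at about 0.56 in these data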;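 also: stock transfer was 300 nL into about 60 µL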
UCH37 DUB inh – blocks the human deubiquitinase UCH37; 0.33% of 330,000 active; inhibition, % (no concentration beside the values); AID 588478; Q9Y5K5; purified proteasome/UCH37, Ub-AMC cleavage fluorescence;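 active = mean of two replicates above 20%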;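 also: 0% = compound-free wells with enzyme and 100% = wells lacking proteasome; stock transfer was 100 nL into about 20 µL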
Target sequence (Q9Y5K5 whole entry, looked up): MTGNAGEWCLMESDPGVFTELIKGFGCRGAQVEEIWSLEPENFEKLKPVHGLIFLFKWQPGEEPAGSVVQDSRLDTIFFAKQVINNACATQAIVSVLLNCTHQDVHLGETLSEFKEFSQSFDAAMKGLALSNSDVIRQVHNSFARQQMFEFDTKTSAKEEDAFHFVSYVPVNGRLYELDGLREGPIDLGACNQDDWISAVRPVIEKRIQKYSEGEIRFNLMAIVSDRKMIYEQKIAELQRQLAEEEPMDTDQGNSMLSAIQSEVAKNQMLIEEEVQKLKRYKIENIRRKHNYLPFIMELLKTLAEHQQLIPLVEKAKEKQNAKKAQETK
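System: Proteasome-associated human UCH37 deubiquitinase; Input: 0.15 nM proteasome in added enzyme buffer; Also added: Ub-AMC substrate from 1 µM stock; Incubation: 30 min compound-proteasome preincubation then 25 min substrate reaction, room temperature; Detection: fluorescence, ex 355 nm, em 460 nm; Read-out: % inhibition of Ub-AMC cleavage fluorescence; Benchmarks: no-proteasome and no-compound wells.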
T cruzi inh – T. cruzi replication inhibition. T. cruzi beta-gal in NIH3T3, luminescence, 90 h. inhibition, % (no concentration beside the values). 1.4% of 300,000 active;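 active = mean inhibition across valid replicates above about 55%, limit read from the data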;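 also: signal also drops with host cell toxicity which is not excluded here; 0% = plate median of DMSO wells and 100% = zero luminescence signal; higher percent means less beta-gal luminescence so fewer parasites; stock transfer was 50 nL into about 50 µL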
rRNA inh HTS OD600 – recorded beside rRNA inh HTS, whose call it bears; OD600 change, %; measured here: OD600 growth;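 optical density of the mix in the first replicate; 0 = DMSO median and -100 = no signal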
rRNA inh HTS RFP – recorded beside rRNA inh HTS, whose call it bears; RFP signal change, %; measured here: RFP humanized mutant strains;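 first replicate; 0 = DMSO median and -100 = no signal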
An asterisk follows results filed as active. A portion of the library; rates above refer to the full screens.

Results for CC1CC(C)(C)CC2(C1)NC(=O)N(CC(=O)N1CCN(S(=O)(=O)c3ccc(F)c(F)c3F)CC1)C2=O (centres undefined) ?
MLL AF4-AF9 inh: -0.2; FGF22 binding: inactive; rRNA inh HTS: 7.5; Ecoli growth: 0.679; UCH37 DUB inh: 0.0; rRNA inh HTS OD600: 13.5; rRNA inh HTS RFP: -0.7

How did CC1CCCCC12NC(=O)N(CC(=O)N1CCN(Cc3ccc(C#N)cc3)CC1)C2=O (centres undefined) do in these assays?
MLL AF4-AF9 inh: -0.8; FGF22 binding: inactive; A1 inh: 0.6; Beta apoptosis: 40.4; rRNA inh HTS: -0.1; Ecoli growth: 0.667; UCH37 DUB inh: -0.2; rRNA inh HTS OD600: 6.3; rRNA inh HTS RFP: -1.5

What do the screens show for `CC1(C)Cc2ccccc2-c2nc(NN)[nH]c(=O)c21`?
MLL AF4-AF9 inh: 1.5; FGF22 binding: inactive; A1 inh: -0.1; Beta apoptosis: -1.4; rRNA inh HTS: -15.1; Ecoli growth: 0.671; UCH37 DUB inh: -4.0; T cruzi inh: -3.6; rRNA inh HTS OD600: -32.5; rRNA inh HTS RFP: -2.6

What do the screens show for `CC(C)COc1ccc(-c2nn(-c3ccccc3)cc2/C=C2/SC(=S)N(CC(=O)O)C2=O)cc1`?
MLL AF4-AF9 inh: 0.6; FGF22 binding: inactive; A1 inh: 0.5; Beta apoptosis: -3.4; rRNA inh HTS: 7.6; Ecoli growth: 0.687; UCH37 DUB inh: 21.9*; T cruzi inh: -5.1; rRNA inh HTS OD600: 18.0; rRNA inh HTS RFP: 3.0

Results for COC(=O)[C@@]1(Cc2ccc(F)cc2)[C@H]2c3cc(C(=O)N(C)C)n(Cc4ccc(OC)c(OC)c4)c3C[C@H]2CN1C(=O)c1ccccc1 ?
MLL AF4-AF9 inh: 15.8; FGF22 binding: inactive; A1 inh: 1.1; Beta apoptosis: -2.5; rRNA inh HTS: 7.2; UCH37 DUB inh: -2.2; T cruzi inh: 7.2; rRNA inh HTS OD600: 8.9; rRNA inh HTS RFP: -0.2

How did CCOc1ccc(S(=O)(=O)NCCC(=O)NCCc2ccc(C(C)C)cc2)cc1 do in these assays?
MLL AF4-AF9 inh: -12.6; A1 inh: 0.8; Beta apoptosis: -1.1; rRNA inh HTS: 4.6; Ecoli growth: 0.705; UCH37 DUB inh: 4.1; T cruzi inh: 4.6; rRNA inh HTS OD600: -10.7; rRNA inh HTS RFP: -2.7

Results for O=C(NCc1ccco1)C(c1cccnc1)N(C(=O)Cn1nnc2ccccc21)c1ccccc1 (centres undefined) ?
A1 inh: -0.5; Ecoli growth: 0.785; UCH37 DUB inh: 4.7; T cruzi inh: 5.1

How did O=C(NCc1ccc(Cl)cc1)N1CCc2ccccc2C1 do in these assays?
MLL AF4-AF9 inh: 0.5; FGF22 binding: inactive; A1 inh: 0.4; Beta apoptosis: 1.7; rRNA inh HTS: 4.9; Ecoli growth: 0.667; UCH37 DUB inh: 2.2; T cruzi inh: -2.3; rRNA inh HTS OD600: 4.0; rRNA inh HTS RFP: -2.8

What do the screens show for `Cc1ccc(CNc2cc(-c3nn4c(C)nnc4s3)ccc2C)s1`?
A1 inh: -1.1; Ecoli growth: 0.719; UCH37 DUB inh: -22.7; T cruzi inh: 14.4

What do the screens show for `COC(=O)C1=C(C)N=C2SCCC(=O)N2C1c1ccc(C(=O)OC)cc1` (centres undefined)?
A1 inh: -0.4; Beta apoptosis: -12.0; Ecoli growth: 0.726; UCH37 DUB inh: 6.7; T cruzi inh: 5.5

The closing two compounds of the section before come first, to join the parts:
What do the screens show for `Cc1ccc(CNc2cc(-c3nn4c(C)nnc4s3)ccc2C)s1`?
A1 inh: -1.1; Ecoli growth: 0.719; UCH37 DUB inh: -22.7; T cruzi inh: 14.4

What do the screens show for `COC(=O)C1=C(C)N=C2SCCC(=O)N2C1c1ccc(C(=O)OC)cc1` (centres undefined)?
A1 inh: -0.4; Beta apoptosis: -12.0; Ecoli growth: 0.726; UCH37 DUB inh: 6.7; T cruzi inh: 5.5

How did Clc1cccc(CSc2nnc(-c3sccc3-n3cccc3)o2)c1 do in these assays?
A1 inh: 0.0; Beta apoptosis: 14.1; Ecoli growth: 0.739; UCH37 DUB inh: 3.2; T cruzi inh: 31.2

Results for Cc1nc2nc[nH]n2c(=O)c1NS(=O)(=O)c1ccc(F)cc1 ?
MLL AF4-AF9 inh: -1.4; FGF22 binding: inactive; A1 inh: -0.6; Beta apoptosis: 1.2; rRNA inh HTS: 24.1; Ecoli growth: 0.656; UCH37 DUB inh: 2.4; T cruzi inh: -18.8; rRNA inh HTS OD600: 18.7; rRNA inh HTS RFP: -3.1

How did O=C(CSc1nc2cccnc2n1Cc1ccccc1)NC1CCCCC1 do in these assays?
A1 inh: 0.3; Beta apoptosis: 1.1; Ecoli growth: 0.716; UCH37 DUB inh: 4.2; T cruzi inh: 4.6

Results for O=c1c(Cl)c(N2CCN(S(=O)(=O)c3ccc(F)cc3)CC2)cnn1-c1cccc(Cl)c1 ?
A1 inh: 1.0; Beta apoptosis: 20.1; Ecoli growth: 0.785; UCH37 DUB inh: 3.7; T cruzi inh: 37.2

What do the screens show for `COc1ccc(N(CC(=O)NC2CCCCC2)C(=O)CNC(=O)c2cccs2)cc1OC`?
MLL AF4-AF9 inh: 0.2; FGF22 binding: inactive; A1 inh: 0.3; Beta apoptosis: -1.1; rRNA inh HTS: 1.4; Ecoli growth: 0.679; UCH37 DUB inh: 0.7; T cruzi inh: -3.2; rRNA inh HTS OD600: -1.1; rRNA inh HTS RFP: -3.8

What do the screens show for `Cn1c(Cc2cccs2)nnc1SCC(=O)Nc1ccccc1`?
MLL AF4-AF9 inh: -1.9; FGF22 binding: inactive; A1 inh: -0.7; Beta apoptosis: 0.1; rRNA inh HTS: 5.9; Ecoli growth: 0.632; UCH37 DUB inh: 1.4; T cruzi inh: 5.0; rRNA inh HTS OD600: 4.5; rRNA inh HTS RFP: -1.8

Results for CN(C)S(=O)(=O)c1ccc(NC(=S)NC(=O)C2CCC2)cc1 ?
MLL AF4-AF9 inh: -0.2; FGF22 binding: inactive; A1 inh: 0.2; Beta apoptosis: 0.0; rRNA inh HTS: -4.5; Ecoli growth: 0.683; UCH37 DUB inh: 1.8; T cruzi inh: 0.4; rRNA inh HTS OD600: -5.5; rRNA inh HTS RFP: -1.0

How did COc1ccccc1C(=O)COC(=O)CSC(C)C(=O)Nc1cc(C)on1 (centres undefined) do in these assays?
MLL AF4-AF9 inh: -2.4; FGF22 binding: inactive; A1 inh: -0.3; Beta apoptosis: 1.4; rRNA inh HTS: 4.7; Ecoli growth: 0.716; UCH37 DUB inh: 1.1; T cruzi inh: -3.2; rRNA inh HTS OD600: 5.7; rRNA inh HTS RFP: 0.4

What do the screens show for `Cn1c(SCC(=O)Nc2ccc(F)cc2)nnc1-c1cccnc1`?
MLL AF4-AF9 inh: 3.4; FGF22 binding: inactive; A1 inh: -0.1; Beta apoptosis: -1.7; rRNA inh HTS: 5.6; Ecoli growth: 0.71; UCH37 DUB inh: 5.7; T cruzi inh: -13.3; rRNA inh HTS OD600: 14.3; rRNA inh HTS RFP: 0.2

What do the screens show for `Cc1cc(S(=O)(=O)NCc2cccnc2)ccc1F`?
MLL AF4-AF9 inh: 0.4; FGF22 binding: inactive; A1 inh: -0.7; Beta apoptosis: -1.2; rRNA inh HTS: 11.9; T cruzi inh: -5.2; rRNA inh HTS OD600: 10.7; rRNA inh HTS RFP: 6.5

Results for COc1ccc(N2C(=O)C(C)C(Cc3ccc(C)cc3)C2=O)cc1 (centres undefined) ?
MLL AF4-AF9 inh: 1.4; FGF22 binding: inactive; A1 inh: -0.1; Beta apoptosis: 23.7; rRNA inh HTS: -10.4; Ecoli growth: 0.646; UCH37 DUB inh: 3.8; T cruzi inh: -4.8; rRNA inh HTS OD600: -4.0; rRNA inh HTS RFP: -0.1

How did COc1ccccc1CCC(=O)Nc1ccc2c(c1)CN(Cc1ccc(CO)o1)CC2 do in these assays?
MLL AF4-AF9 inh: 1.1; FGF22 binding: inactive; A1 inh: -0.5; Beta apoptosis: 1.9; rRNA inh HTS: -0.5; Ecoli growth: 0.705; UCH37 DUB inh: 0.5; T cruzi inh: 12.7; rRNA inh HTS OD600: -3.1; rRNA inh HTS RFP: 3.3

How did CCOc1ccccc1-n1nnnc1SCC(=O)NCC1(N2CCOCC2)CCCCC1 do in these assays?
MLL AF4-AF9 inh: 1.9; FGF22 binding: inactive; A1 inh: -0.3; Beta apoptosis: 4.6; rRNA inh HTS: -1.0; Ecoli growth: 0.704; UCH37 DUB inh: 3.0; rRNA inh HTS OD600: -17.9; rRNA inh HTS RFP: 2.2

How did COc1cccc(OCc2cc(C(=O)N3CCN(C(C)=O)CC3)no2)c1 do in these assays?
MLL AF4-AF9 inh: 0.5; FGF22 binding: inactive; A1 inh: 2.0; Beta apoptosis: -1.6; rRNA inh HTS: 1.5; Ecoli growth: 0.691; UCH37 DUB inh: 0.4; T cruzi inh: -20.0; rRNA inh HTS OD600: 5.4; rRNA inh HTS RFP: 0.7

How did Cc1ccc(CNC(=O)CS(=O)(=O)Cc2nc(-c3ccc(C)cc3)oc2C)cc1 do in these assays?
MLL AF4-AF9 inh: -0.8; FGF22 binding: inactive; A1 inh: -0.3; Beta apoptosis: -4.5; rRNA inh HTS: 4.4; Ecoli growth: 0.665; UCH37 DUB inh: 0.2; T cruzi inh: 9.4; rRNA inh HTS OD600: 10.1; rRNA inh HTS RFP: -1.2

What do the screens show for `Cc1nnc(SCC(=O)NNC(=O)c2ccco2)n1-c1ccccc1`?
MLL AF4-AF9 inh: 0.7; FGF22 binding: inactive; A1 inh: 1.6; Beta apoptosis: -2.7; rRNA inh HTS: 15.8; Ecoli growth: 0.717; UCH37 DUB inh: 1.0; T cruzi inh: -1.6; rRNA inh HTS OD600: 6.7; rRNA inh HTS RFP: 4.2

Results for COc1ccc(C2C(C(N)=O)=C(C)Nc3nc(-c4ccccc4Cl)nn32)c(OC)c1 (centres undefined) ?
MLL AF4-AF9 inh: 3.3; FGF22 binding: inactive; A1 inh: 0.0; Beta apoptosis: -3.3; rRNA inh HTS: -0.3; Ecoli growth: 0.744; UCH37 DUB inh: -1.7; T cruzi inh: -3.8; rRNA inh HTS OD600: 1.8; rRNA inh HTS RFP: -0.6

How did Cn1c(CNc2ccccn2)c(C#N)c2ccccc21 do in these assays?
A1 inh: -0.7; Beta apoptosis: 0.8; Ecoli growth: 0.716; UCH37 DUB inh: 2.5; T cruzi inh: 6.5

How did C[n+]1c2n(c3ccccc31)N=C(c1ccc(Br)cc1)CS2 do in these assays?
A1 inh: -0.8; Beta apoptosis: 56.7; Ecoli growth: 0.683; UCH37 DUB inh: 10.5; T cruzi inh: 44.9

What do the screens show for `COc1cc(OC)c(NC(=O)CCc2ccccc2)cc1Cl`?
A1 inh: 0.4; Beta apoptosis: -9.7; Ecoli growth: 0.728; UCH37 DUB inh: 3.6; T cruzi inh: 28.5

How did COc1ccc2c(c1OC)C(=O)OC2Nc1nc(-c2ccc(-c3ccccc3)cc2)cs1 (centres undefined) do in these assays?
A1 inh: -5.0; Beta apoptosis: -12.2; Ecoli growth: 0.642; UCH37 DUB inh: -22.6; T cruzi inh: -4.6

Compound activity deposited in PubChem BioAssay by several laboratories.
